# Assay outcomes from PubChem.
# CDC25B CDK2 inh = human CDC25B-CDK2/CyclinA binding inhibition; HTRF CDC25B-CDK2/CyclinA binding, anti-His/anti-Flag; stronger effect = higher value; z-score (no concentration beside the values); actives 0.72% (n = 94,000);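 also: score is relative to mean and SD of negative controls; strong numbers were not always called active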
# TAR Tat displ = HIV-1 TAR-Tat binding disruption; HIV-1 TAR RNA, Tat peptide displacement FRET; stronger effect = higher value; z-score (concentration not given with the values); actives 0.6% (n = 100,000);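 also: score is relative to mean and SD of negative controls; some compounds called inactive have numbers as strong as hits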
# Numbers without * were called inactive; . = no result given.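 The calls were made as follows: active = z-score from 3 up in half or more of its runs; inactive = the rest.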
SMILES,CDC25B CDK2 inh,TAR Tat displ
CCOC(=O)C1=C(C)NC(=S)NC1c1cccc(Cl)c1 (centres undefined),1.1,.
Cn1ncc2c(NCc3ccccc3)nc(N3CCCC3)nc21,.,1.3
Cc1ccc(-c2nnc(SCC(=O)N3CCc4ccccc43)o2)cc1,-0.34,1.5
CCOc1ccc(C2C(C(=O)OC(C)C)=C(C)NC3=C2C(=O)CC(c2ccccc2)C3)cc1OC (centres undefined),-1.1,0.62
Cc1c(NC(=O)Nc2ccccc2-c2ccccc2)c(=O)n(-c2ccccc2)n1C,-1.3,0.86
Nc1ccc(-c2nc3ccc(N)cc3o2)cc1,-1.8,2
CCCCCCn1cnc2c(oc3nc4c(cc32)CCCC4)c1=O,.,0.48
CC(C)CCNC(=O)CCCCn1c(=O)[nH]c2ccsc2c1=O,-0.91,1.2
CC(C)c1ccc(NCC(O)COc2ccc(Cl)c(Cl)c2)cc1 (centres undefined),-2,.
Cc1ccc(NS(=O)(=O)c2c(C)nc3scc(C)n3c2=O)c(C)c1,-0.8,-0.01
O=C(Cn1ncn2nc(-c3cccs3)cc2c1=O)N1CCCCC1,-1.5,1.2
Cc1ccc2onc(CNC(=O)NCc3ccc(Cl)cc3)c2c1,.,-0.5
CCN1CCN(c2c(S(=O)(=O)c3ccc(Cl)cc3)cnc3ccc(F)cc23)CC1,-2,-1.1
COCCCN(Cc1cccs1)S(=O)(=O)c1cc2[nH]c3c(c2cc1C)C(=O)CCC3,.,0.91
Cc1ccc(Nc2ncnc3c2nnn3-c2ccc(C)cc2)cc1,-0.46,3.1
CCCNS(=O)(=O)c1ccc(NC2=NS(=O)(=O)c3ccccc32)cc1,-0.34,0.48
CC1(C)CC(=O)C2=C(C1)Nc1ncnn1C2c1cccc(Oc2ccccc2)c1 (centres undefined),0.29,0.65
CCCCS(=O)(=O)c1oc(-c2ccc(F)cc2)nc1S(=O)(=O)c1ccc(F)cc1,-3.3,-1.3
Fc1cc(F)cc(-c2noc3ncnc(NC4CCCC4)c23)c1,.,0.73
O=C(NC(=O)c1csc([N+](=O)[O-])c1)NN1CCCCCC1,-1.4,.
Cc1cc(NC(=O)CSc2nnc(-c3ccncc3)n2C)n(-c2ccccc2)n1,1.6,.
O=C(c1ccc2c(Cl)c3c(nc2c1)CCC3)N1CCN(Cc2ccc3c(c2)OCO3)CC1,-0.84,.
c1ccc(-c2nnc3n2N=C(c2c[nH]c4ccccc24)CS3)cc1,0.63,-1.7
Cc1ccc(-c2c3c(=O)n(C)c(=O)n(C)c3cn2C)cc1,-1.8,0.58
CCCCc1ccc(S(N)(=O)=O)cc1,1.1,0.52

# Continued.
SMILES,CDC25B CDK2 inh,TAR Tat displ
COc1ccc(OCC(=O)NC2CCS(=O)(=O)C2)cc1 (centres undefined),1.3,0.79
Nc1ccc(Sc2nc3ccccc3s2)cc1,-1.2,1.6
Cc1cc(C)c(NC2c3ccccc3C(=O)N2c2cccnc2)c(C)c1 (centres undefined),-0.86,0.6
COc1ccc2cc3cc(C(=O)N4CCCC4)oc3nc2c1,-1.5,.
Nc1ccc2c(C(F)(F)F)cc(C(F)(F)F)nc2n1,-1.8,.
C(C#CCOc1ccccc1)#CCOc1ccccc1,-1.1,.
N=C1C(c2nc3ccccc3[nH]2)=C(O)CN1c1ccc(Br)cc1,1.7,1.7
CSc1nc(=O)[nH]nc1SCc1ccccc1,-1.8,.
CSc1ccc(C2CC(=O)Nc3nc(N)[nH]c(=O)c32)cc1 (centres undefined),-1.1,-1.9
N#Cc1nc(-c2ccc(COc3ccccc3)o2)oc1N1CCN(c2ccccc2)CC1,-1.6,1.2
Cc1ccc(-n2c(=S)[nH]c3sc4c(c3c2=O)CC(C)(C)OC4)cc1,-4.2,.
CN1CCN(C2=C(C(=O)Nc3ccc(F)cc3)S(=O)(=O)c3ccccc32)CC1,.,0.37
CC(C)NCC(O)c1ccc(O)c(O)c1 (centres undefined),-0.09,-0.51
Cc1ccc(NC(=O)C23CC4CC(CC(C4)C2)C3)cc1,1.6,.
Cc1nc2ncnn2c(C)c1CCC(=O)NCc1ccc2c(c1)OCO2,-0.54,.
Cc1ccc(S(=O)(=O)Nc2cccc(-c3ccc(S(C)(=O)=O)nn3)c2)s1,.,1.5
O=S(=O)(Nc1cccc(-c2nnc(-c3ccccc3)o2)c1)c1ccc(Br)cc1,.,-0.53
O=c1oc2ccccc2n1CCc1nnc(-c2cccc(Cl)c2)o1,-0.49,.
CC1CCC(NC(=O)c2cc3c(=O)n(C)c4ccccc4c3n2C)CC1 (centres undefined),-0.71,3
CCOC(=O)CCc1cc(C(=O)OCC)c(CCC(=O)OCC)cc1C(=O)OCC,0.24,.
COc1cccc(C2Oc3c(OC)cccc3C3CC(c4ccccc4O)=NN32)c1 (centres undefined),-1.9,-1.4
CCN1CCN(c2nc3c(S(=O)(=O)c4ccc(C)cc4)nnn3c3ccsc23)CC1,.,0.35
Fc1ccccc1Nc1nc2ccc(Cl)cc2n2cnnc12,-0.06,1.1
O=C(CSC1=NS(=O)(=O)c2ccccc2N1)OCc1ccccc1,.,0.87
Cc1cc(F)ccc1S(=O)(=O)NCCc1csc2nc(-c3ccccc3F)nn12,.,2.1

# Entries listed so far that contain a furan ring, fused or not (3):
SMILES,CDC25B CDK2 inh,TAR Tat displ
CCCCCCn1cnc2c(oc3nc4c(cc32)CCCC4)c1=O,.,0.48
COc1ccc2cc3cc(C(=O)N4CCCC4)oc3nc2c1,-1.5,.
N#Cc1nc(-c2ccc(COc3ccccc3)o2)oc1N1CCN(c2ccccc2)CC1,-1.6,1.2

# Single records, from the list above. Screens in order: CDC25B CDK2 inh, TAR Tat displ
# Record of `Fc1cc(F)cc(-c2noc3ncnc(NC4CCCC4)c23)c1` = ., 0.73
# Record of `O=c1oc2ccccc2n1CCc1nnc(-c2cccc(Cl)c2)o1` = -0.49, .
# Record of `O=C(NC(=O)c1csc([N+](=O)[O-])c1)NN1CCCCCC1` = -1.4, .
# Record of `COc1ccc2cc3cc(C(=O)N4CCCC4)oc3nc2c1` = -1.5, .
# Record of `CCOc1ccc(C2C(C(=O)OC(C)C)=C(C)NC3=C2C(=O)CC(c2ccccc2)C3)cc1OC` (centres undefined) = -1.1, 0.62

# Continuation:
SMILES,CDC25B CDK2 inh,TAR Tat displ
N#Cc1c(N)oc(-c2ccco2)c1-c1ccco1,-2.9,.
O=C1NC(=O)N2CSCC12 (centres undefined),-1.6,.
CCN(CC)CCn1c(C)c(C)c2c1ncn1nc(-c3ccc(OC)cc3)nc21,-0.82,1.8
O=C(NCCN1CCCc2ccccc21)Nc1cc(F)ccc1F,-0.65,-2.3
CCCC1N=C2c3ccccc3N=C(SCC(=O)Nc3ccc(F)cc3)N2C1=O (centres undefined),.,1.4
O=C1c2ccccc2-c2onc3c(N4CCN(C5CCCCC5)CC4)cc(NCCO)c1c23,-2.3,0.42
COc1ccc(C[C@H](N)C(=O)N[C@H]2[C@@H](O)[C@H](n3cnc4c(N(C)C)ncnc43)O[C@@H]2CO)cc1,.,3.1
Cc1ccc(S(=O)(=O)[C@H]2CS(=O)(=O)C[C@@H]2NCCc2ccccc2)cc1,-1.1,0.84
CCOC(=O)C(C)Oc1ccc2c(CC)cc(=O)oc2c1C (centres undefined),-1.2,.
O=C(O)Cn1nc(N2CCN(c3ccccc3)CC2)ccc1=O,0.24,0.8
COc1ccc2c(c1)c(=O)oc1cc(OCC(N)=O)ccc12,0.15,0.55
O=C(CSC1=NS(=O)(=O)c2ccccc2N1)Nc1ccccc1Cl,.,2.2
Clc1ccc(OCc2nn3c(Cn4cnc5ccccc54)nnc3s2)cc1,1.8,0.76
N#Cc1cc2c(=O)n3ccccc3nc2n(-c2ccccc2Br)c1=O,-2.9,1.1
O=C(NCC1CCCO1)C1=Cc2ccccc2OC1 (centres undefined),.,0.81
COc1ccc(C2C3=C(CC(C)(C)CC3=O)Nc3nc(N)[nH]c(=O)c32)cc1 (centres undefined),2,0.36
Cc1c(C(=O)C(=O)N2CC(C)OC(C)C2)c2ccccc2n1C (centres undefined),-4.2,.
Cc1nnc(N2C(=O)C(O)=C(C(=O)c3ccco3)C2c2ccc(C(C)C)cc2)s1 (centres undefined),-2.8,.
C=CCOC(=O)c1sc(N2C(=O)c3oc4ccccc4c(=O)c3C2c2ccc(Cl)cc2)nc1C (centres undefined),-0.16,1.2
Nc1ncnc2cccc(F)c12,-0.56,.
CCOc1ccc(NS(=O)(=O)c2cccs2)cc1,-0.88,-0.02
O=C1CC(=O)Nc2cc(S(=O)(=O)Nc3ccc(Cl)cc3F)ccc2N1,-1.4,0.15
CCCCC12CN3CC(C)(CN(C1)C3c1cccs1)C2=O (centres undefined),-1.6,-1.6
CCSc1ncc(Cl)c(C(=O)Oc2ccc(Br)cc2)n1,-1.1,2.3
COC(=O)C1=C(C)NC2=C(C(=O)CCC2)C1c1ccc(OC)c(Br)c1 (centres undefined),-1.4,1.6

# Next compounds follow.
SMILES,CDC25B CDK2 inh,TAR Tat displ
C1=C(c2cccs2)CC(c2cccs2)=NN=C1c1cccs1,1.4,0.56
Cc1ccc(Cn2cc(S(=O)(=O)c3ccc(Cl)cc3)c(=O)c3cc4c(cc32)OCO4)cc1,-6.4,.
C=C1CC[C@H](O)C/C1=C/C=C1\CCCC2(C)C1CCC2C(C)CCCC(C)C (some centres undefined),.,1.7
CCNc1ncnc2c1cnn2-c1ccc(F)cc1,.,1.1
CCN(CC)S(=O)(=O)c1ccc2c(c1)CC(C(=O)N1CCN(c3ncccn3)CC1)N2C(C)=O (centres undefined),.,0.98
CC(=O)NC(=O)/C(C#N)=N\O,-1.2,.
CNc1nc(NCc2ccc(C)cc2)c2cnn(C)c2n1,.,2.4
Cc1ccc(N2C(=O)c3ccccc3C2Nc2nc(C)cs2)nc1 (centres undefined),-1.5,-1.2
CCOc1ccc(C(Nc2ccccn2)c2c(O)ccc3ncccc23)cc1 (centres undefined),5.3,-0.31
O=C1CCCc2cc(S(=O)(=O)NCCCN3CCc4ccccc4C3)ccc2N1,.,0.75
COc1ccc2ncc(S(=O)(=O)c3ccccc3)c(N3CCCCC3)c2c1,-0.29,0.74
CCOC(=O)N1CCN(C(=O)c2cc3c(s2)-c2ccc(Cl)cc2S(=O)(=O)C3)CC1,-1.1,1.8
CC(C)COC(=O)C(C)Oc1ccc2c(=O)c(Oc3ccccc3Cl)coc2c1 (centres undefined),1.1,-0.31
O=C(Cn1c2ncccc2c(=O)n1-c1ccccc1)Nc1ccc(Cl)cc1,.,1.5
CCOC(=O)N1CCN(C(=O)c2ccc3c(c2)N(CC)CCS3)CC1,-0.88,0.57
Cc1ccccc1NC(=O)Nc1sc2nc3n(c(=O)c2c1C)CCC(C)CC3 (centres undefined),12*,0.07
Cc1cccc(N(C)S(=O)(=O)c2ccc(-c3cnc(C4CC4)o3)cc2)c1,.,0.6
c1ccc2c(c1)-c1ccccc1C2(c1ccc(N2N=N2)cc1)c1ccc(N2N=N2)cc1,-2.1,.
CC(=O)Nc1ccc(N2C(=O)C3CCCCC3C2=O)cc1Cl (centres undefined),0.05,0.77
CC(C)c1ccc(S(=O)(=O)N2CCC(c3ccncc3)CC2)cc1,.,1.5
CCOC(=O)c1sc2ccccc2c1S(=O)(=O)NCc1ccco1,.,-1.8
O=C1NC(c2ccc(-c3ccc(Cl)cc3)o2)C(C(=O)c2ccccc2)C(O)(C(F)(F)F)N1 (centres undefined),-1.9,.
CCOC(=O)c1nc(-c2ccc([N+](=O)[O-])o2)no1,-2.9,.
COC(=O)c1cc(C)ccc1OCc1ccc([N+](=O)[O-])cc1,-1.2,.
COCCCNC(=O)CCCn1sc2ccccc2c1=O,-0.56,2

# Structures from the list above with an aryl thioether with sulfur outside any ring:
SMILES,CDC25B CDK2 inh,TAR Tat displ
Cc1ccc(-c2nnc(SCC(=O)N3CCc4ccccc43)o2)cc1,-0.34,1.5
Cc1cc(NC(=O)CSc2nnc(-c3ccncc3)n2C)n(-c2ccccc2)n1,1.6,.
Nc1ccc(Sc2nc3ccccc3s2)cc1,-1.2,1.6
CSc1nc(=O)[nH]nc1SCc1ccccc1,-1.8,.
CSc1ccc(C2CC(=O)Nc3nc(N)[nH]c(=O)c32)cc1 (centres undefined),-1.1,-1.9
CCSc1ncc(Cl)c(C(=O)Oc2ccc(Br)cc2)n1,-1.1,2.3

# Later entries:
SMILES,CDC25B CDK2 inh,TAR Tat displ
COc1ccc(C2c3c(oc4ccccc4c3=O)C(=O)N2Cc2ccc3c(c2)OCO3)cc1 (centres undefined),0.58,0.83
CC[C@]1(O)CC2CN(CCc3c([nH]c4ccccc34)[C@@](C(=O)OC)(c3cc4c(cc3OC)N(C)[C@H]3[C@@](O)(C(N)=O)[C@H](O)[C@]5(CC)C=CCN6CC[C@]43[C@@H]65)C2)C1 (some centres undefined),.,-1.9
O=C(NCc1ccc2c(c1)OCO2)c1cc(=O)c2ccccc2o1,-0.21,0.4
N#CC1=C(N)Oc2n[nH]c(-c3ccccc3)c2C1c1cccnc1 (centres undefined),-1.4,0.62
Cc1csc(NC(=O)CSc2nc(C)nc3c2c(=O)n(C)c(=O)n3C)n1,.,0.41
CCOC(=O)CNC(=O)N1CCCC1c1ccco1 (centres undefined),-1.8,0.23
Cn1c(=O)oc2cc(S(=O)(=O)N3CCC(C(=O)Nc4nccs4)CC3)ccc21,-0.15,.
Cc1cc(Nc2ccccc2F)nc2cccc(O)c12,-0.93,1.7
COc1cccc(C2NC(=O)c3c(sc4c3CCN(C)C4)N2)c1O (centres undefined),-0.71,-1.9
C=CCN1C=C(OC(=O)C(C)(C)C)c2ccccc2S1(=O)=O,-0.17,-0.19
O=C(NCCc1c[nH]c2ccccc12)c1cc2ccccn2n1,-2.3,.
S=c1[nH]nc(COc2ccccc2)n1-c1ccccc1,-0.62,.
CCC(=O)N1c2ccccc2CC1C(=O)N1CCN(C(=O)c2ccco2)CC1 (centres undefined),.,1
CCOC(=O)C(C)Sc1nnc(CSc2nc(C)cc(C)n2)n1-c1ccc(OC)cc1 (centres undefined),-1.2,-1.2
O=C(CCc1nnc2ccc(N3CCOCC3)nn12)Nc1ccccn1,.,0.23

# An unsorted share of the library. About 0.87% of those tested had a hit in this group.
